HCMV NEC inh: disrupts HCMV UL50-UL53 complex binding; HTRF UL50-UL53 interaction, normalized percent inhibition; inhibition, % (no concentration beside the values); 0.15% of 190,000 active; AID 1918969;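 active means both replicates at 50% or more, plus weaker picks with an unusually low signal ratio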;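 further: stock transfer was 100 nL into about 20 µL; 0% = negative control wells and 100% = wells with untagged competitor protein; inactives centre near -12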
Sa growth inh: blocks Staphylococcus aureus growth; S. aureus RN4220 growth, OD600, 20 h, 42 °C; stronger effect = lower value; relative growth, % (concentration not given with the values); 0.53% of 170,000 active;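 active means growth at 42 °C up to 50% and 20 or more points under that at 30 °C, or under 10% at both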;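 further: 300 nL library stock went into each well; scaled to the means of positive and negative controls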
GIV Gai3 FP: inhibitors of GIV GBA-motif binding to rat Galpha-i3. P08753. Galpha-i3/FITC-GIV peptide fluorescence polarization, 90 min; stronger effect = lower value; scaled: aluminum fluoride 0%, vehicle 100%. percent of control (FP), % (no concentration beside the values). 0.42% of 210,000 active. AID 1224905;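 active means replicate mean at 85% of control or lower, very high polarization wells dropped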;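 further: wells of about 15 µL received 100 nL stock; the first replicate is given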
Target sequence (P08753 whole entry, looked up): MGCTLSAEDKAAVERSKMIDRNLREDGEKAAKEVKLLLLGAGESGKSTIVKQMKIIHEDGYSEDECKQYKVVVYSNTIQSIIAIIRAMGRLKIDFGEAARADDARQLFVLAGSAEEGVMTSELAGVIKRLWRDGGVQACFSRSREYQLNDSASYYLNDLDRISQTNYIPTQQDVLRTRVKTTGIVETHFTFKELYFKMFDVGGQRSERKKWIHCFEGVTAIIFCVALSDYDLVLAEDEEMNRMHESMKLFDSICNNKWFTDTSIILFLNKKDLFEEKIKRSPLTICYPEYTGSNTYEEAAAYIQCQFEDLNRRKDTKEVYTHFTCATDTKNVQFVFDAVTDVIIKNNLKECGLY
Sa growth inh second temp: second read-out of Sa growth inh, no call of its own (marks repeat the call); relative growth, %; measured here: growth at 30 °C;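 optical density after 20 h as mean of two plates; 100% = untreated growth and lower means inhibition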
* = called active by the depositor; . = no result given; & = joins results of further samples. The order is random, and some 0.85% of all compounds hit somewhere here.

SMILES	HCMV NEC inh	Sa growth inh	Sa growth inh second temp	GIV Gai3 FP
Fc1ccc(CNc2nc3ccc(Cl)cc3n3nnnc23)cc1	5	111	89	141
CC1CCC(NC(=O)C(C)n2ncn3cccc3c2=O)CC1 (stereo not given)	-22	102	80	101
Cc1[nH]c2ccc(C(=O)OCC(=O)NC3CC3)cc2c1C	-20	87	95	.
CCN(CC)S(=O)(=O)c1nnc(NC(=O)c2ccc(Br)cc2)s1	-2	131	72	104
COc1ccc(CNCc2ccc3c(c2)OCO3)cc1	-2	90	93	99
CCn1c(=O)c(C(=O)CSc2nnnn2Cc2cccs2)c(N)n(Cc2ccccc2)c1=O	-6	103	94	.
CC1(C)Oc2ccc(C(=O)Nc3ccccc3)cc2N(CC(=O)N2CCCC2)C1=O	8	84	102	106
O=C(Cc1csc(N2CCCC2=O)n1)Oc1ccc2c(c1)OCO2	-6	84	83	.
Cc1nn2c3c(cnc2c1-c1ccc(F)cc1)C(=O)CCC3	-39	.	.	95
COc1ccc2c(c1)nc(SCc1ccccc1)n2C	-15	92	87	98
C=CCN(CC=C)C(=S)Nc1ccc(OC)cc1	-10	77	89	.
COCCNCc1ccc(-c2ccc(F)cc2)o1	-5	.	.	96
O=C1C2C3C=CC(C3)C2C(=O)N1CN1CCCCCC1 (stereo not given)	-9	100	93	106
Cc1cc2nc(Sc3ccccc3Cl)cc(=O)n2o1	-9	67	31	.
Cc1cccc(C)c1OCC(=O)Nc1c(C)nn(C)c1C	-37	96	78	104
Cc1nc2ccccc2n1CCOc1ccc(Br)cc1	-19	108	88	.
Nc1ncnc2c1ncn2Cc1ccccc1	-12	87	86	100
O=C(Nc1ccc2nc(SCCOc3ccccc3)sc2c1)c1ccccc1	-12	.	.	101
CCOC(=O)c1c(C)[nH]c(C)c1S(=O)(=O)N(C)CC(=O)Nc1ccc(OC)cc1	.	73	87	106
OCc1nc2ccccc2n1CCCOc1ccc(Cl)cc1	-24	.	.	107

The final 7 compounds of the section before come first, to join the parts.
SMILES	HCMV NEC inh	Sa growth inh	Sa growth inh second temp	GIV Gai3 FP
Cc1cc2nc(Sc3ccccc3Cl)cc(=O)n2o1	-9	67	31	.
Cc1cccc(C)c1OCC(=O)Nc1c(C)nn(C)c1C	-37	96	78	104
Cc1nc2ccccc2n1CCOc1ccc(Br)cc1	-19	108	88	.
Nc1ncnc2c1ncn2Cc1ccccc1	-12	87	86	100
O=C(Nc1ccc2nc(SCCOc3ccccc3)sc2c1)c1ccccc1	-12	.	.	101
CCOC(=O)c1c(C)[nH]c(C)c1S(=O)(=O)N(C)CC(=O)Nc1ccc(OC)cc1	.	73	87	106
OCc1nc2ccccc2n1CCCOc1ccc(Cl)cc1	-24	.	.	107
COc1ccc(CNC(=O)CSCc2ccc(C)cc2)c(OC)c1	.	120	94	105
O=c1oc2cc(O)ccc2c2c1CCC2	-27	108	79	100
Cc1cccc(-c2nc3sc4c(c3c(=O)o2)CCCCC4)c1	-11	.	.	99
CCCn1c(C)cc(C(=O)CSc2nnc(-c3cccc(S(=O)(=O)N(CC)CC)c3)o2)c1C	-9	69	78	.
O=C(CCn1c(=O)oc2ccccc21)N1CCN(Cc2ccc3c(c2)OCO3)CC1	-20	113	88	.
CN(C)c1ccc(C2(C)Oc3ccccc3C(=O)N2c2ccccc2)cc1 (stereo not given)	-24	86	94	.
Cc1ccccc1CN1CCN(C(=O)c2ccco2)CC1	.	110	93	102
Cn1nc(OC(C)(C)C(=O)NC(C)(C)C)cc1C(F)(F)F	2	97	96	105
CC1=C(C#N)C(C)(C)C(C#N)=C(C)N1	1	82	73	100
CCOC(=O)C(C)Oc1ccc2c(=O)c(-c3ccc4c(c3)OCCCO4)c(C)oc2c1 (stereo not given)	-14	.	.	98
COc1ccc(C[C@H](N)C(=O)N[C@@H]2[C@@H](CO)OC(n3cnc4c(N(C)C)ncnc43)[C@@H]2O)cc1 (stereo not given in full)	-26	59	71	.
Cn1c(=O)c2[nH]c(-c3ccccc3)nc2n(C)c1=O	-21	.	.	99
CC(C)(C)N1C(=O)c2ccc(-c3nc4ccccc4o3)cc2C1=O	-9	110	95	105
COc1ccc(Cl)c(N2CC(c3nc4ccccc4n3C(C)C)CC2=O)c1 (stereo not given)	-4	99	88	.
CCOC(=O)c1c(C)oc2ncnc(N3CCN(c4ccccc4OC)CC3)c12	.	101	89	103
CC1CCC(NC(=O)C2c3cccn3CC(=O)N2CCc2ccccc2)CC1 (stereo not given)	-26	.	.	102
Cc1cccc(NC(=O)C2c3ccccc3Oc3ccccc32)c1	.	115	73	101
O=C(O)CCNC(=O)c1ccco1	.	91	83	101
CN(C)CCNC(=O)c1ccc2c(c1)NC(=O)C(CS(=O)(=O)Cc1cccc(Br)c1)N2 (stereo not given)	.	143	98	109
Cc1c(N2CCN(C(=O)CC3CCCCC3)CC2)c(=O)n(C)c(=O)n1C	-28	.	.	104
CCc1cc(=O)[nH]c(SC)n1	.	85	82	103
Cc1ccc(C)c(CS(=O)(=O)c2cn(CC(=O)N(C(C)C)C(C)C)c3ccccc23)c1	.	105	88	103
CCOC(=O)C1CCN(C(=O)Cn2nc(CC)n3c(cc4occc43)c2=O)CC1	-23	100	90	95
CNc1ncnc2c1cnn2-c1ccc(C)c(C)c1	.	137	84	107&104
O=c1[nH]cnc2scc(-c3ccc4ccccc4c3)c12	.	114	89	100
Cc1nc2ccc(C(=O)N3CCN(Cc4ccccc4)CC3)cc2[nH]1	10	99	113	100
O=C(CCC1CCCC1)N1CCC2(CC1)Nc1ccccc1-n1cccc12	-32	.	.	104
CCCCCn1c(=O)[nH]c2cc(C(=O)NC(C)CC)ccc2c1=O (stereo not given)	8	107	93	102
CSc1ccc(/C=C2/NC(=O)NC2=O)cc1	-113	87	90	105
CC(CC(=O)Nc1cccc(Cl)c1)N1CCCC1 (stereo not given)	-9	.	.	104
O=C(Nc1nc(CN2CCCCC2)cs1)c1ccc(-n2cccn2)cc1	-6	72	59	.
COc1ccccc1NC(=O)c1cccc(S(=O)(=O)N2CCCCCC2)c1	-18	99	84	109
CCCCNC(=O)Cn1c(-c2ccc(OC)cc2)noc1=O	-9	103	88	105
COc1ccc(C(O)c2nccn2Cc2ccccc2)cc1OC (stereo not given)	-19	83	88	.
CCCNC(=O)Cc1ccc(-n2c(=O)c3ccccc3n(CC(=O)NC3CCCC3)c2=O)cc1	-14	.	.	103
Cc1ccc(C(=O)O/N=C(/c2nonc2N)N(C)C)cc1	-12	90	89	93
Cc1ccc(Cn2c3ccccc3c3cnn(CC(=O)Nc4ccccc4Cl)c(=O)c32)cc1	-7	.	.	107
FC(F)(F)c1ccnc(NCc2ccc3c(c2)OCO3)n1	.	108	102	106
CN1CCCN(C(=O)c2cc(S(=O)(=O)N(C)c3ccc(F)cc3)ccc2Cl)CC1	-16	79	90	.
O=S(=O)(NCCSc1nnc(-c2ccco2)n1-c1ccccc1)c1ccccc1	15	104	102	101
O=C(O)Cc1c[nH][nH]c1=O	.	103	76	103
CC1CCN(C(=O)c2cc3c(=O)n4ccccc4nc3n2C)CC1	-54	82	89	.
COc1ccccc1CN1C(=O)c2ccccc2CC1(C)C(=O)NC1CCCCC1 (stereo not given)	-6	.	.	106
CC(C)(C)C(=O)Nc1c(Cl)cccc1OC(F)(F)F	4	93	105	105
COc1ccc(/C=N/N2C(=O)c3ccccc3C2=O)cc1OC	-23	95	92	102
Cc1nc2c(c(=O)[nH]1)CCN(Cc1ccccc1)C2	-24	.	.	103
c1ccc(CC2CCN(Cn3cnc4ccccc43)CC2)cc1	-43	96	92	.
COc1cc(CN2CCC(C(=O)N3CCN(c4ccccc4F)CC3)CC2)cc(OC)c1O	7	106	87	.
CCn1nnc2cc(C(=O)N3CCc4ccccc43)ccc21	-5	.	.	102
CC(C)N(Cc1ccccc1)C(=O)c1cccs1	-23	87	89	102
CCOC(=O)c1nc(Nc2ccc(F)c(F)c2)c2c(C)noc2n1	-11	.	.	105
N/C(=N\O)c1ccc2nonc2c1	-79	108	85	101
CC1=CC(C)(C)Nc2ccccc21	-21	93	86	104
Cc1cc2nn(-c3ccc(F)cc3)nc2cc1NC(=O)c1ccc(C(C)(C)C)cc1	-19	.	.	105
O=S(=O)(c1cccc(Cl)c1)N1CCC2(CC1)Nc1ccccc1-n1cccc12	8	.	.	98
CCOC(=O)c1cc2c(=O)n3ccccc3nc2n(C(C)C)c1=NC(=O)c1c(-c2c(F)cccc2Cl)noc1C	-39	103	100	101
CCOc1ccc(C(c2c(O)cc(C)n(Cc3ccco3)c2=O)N2CCCCC2)cc1 (stereo not given)	.	96	87	95
COc1cccc(NC(=O)CSc2nc3c([nH]c4ccccc43)c(=O)n2-c2cccc(Cl)c2)c1	.	106	88	97
Cn1cc(C(=O)NCCc2ccc(Cl)cc2)c(=O)c2cc(S(=O)(=O)N3CCCCC3)ccc21	-13	103	91	101
Cc1cc(C)c(NC(=O)CN2C(=O)c3cccnc3Oc3ccc(Cl)cc32)c(C)c1	.	101	98	106
Continued.
SMILES	HCMV NEC inh	Sa growth inh	Sa growth inh second temp	GIV Gai3 FP
CC(C)NC(=O)CSc1nncn1-c1ccccc1	-29	92	82	.
CC(=O)N1CCC(N(CCCOC(C)C)C(=O)Nc2ccc(C)c(C)c2)CC1	.	96	85	98
O=C(NCCc1ccccc1)Nc1c[nH]c(=O)[nH]c1=O	-31	86	84	100
CCC1c2ccc(C)n2CCN1C(=O)NC12CC3CC(CC(C3)C1)C2 (stereo not given)	.	98	81	120
CC1=C(C#N)C(c2ccc(CN3C(=O)c4ccccc4C3=O)o2)C2=C(CCCC2=O)N1 (stereo not given)	-25	91	85	106
COc1cc(/C=C2/N=C(c3ccc(Cl)c([N+](=O)[O-])c3)OC2=O)cc(OC)c1OC	-32	.	.	104
Cc1cccc(C(=O)Nc2cc3nn(-c4ccc(C(C)C)cc4)nc3cc2C)c1	-29	81	84	106
O=C(COC(=O)c1cccc(NC(=O)C(F)(F)F)c1)c1ccccc1	-3	82	91	.
Cc1c(C(=O)NCC(c2ccccc2)c2c[nH]c3ccccc23)oc2ccc(F)cc12 (stereo not given)	-27	.	.	105
CC1(C)CC(=O)C=C(N)C1	5	102	102	.
OCCN1CCN(c2ncnc3sc(-c4ccccc4)cc23)CC1	-67	130	79	.
COc1ccc(S(=O)(=O)Nc2ccc3c(c2)n(C)c(=O)n3C)cc1C(=O)N1CCCCCC1	7	84	96	104
CC(=O)N1CCc2c(sc3c2c(=O)n(Cc2ccccc2)c(=O)n3Cc2ccccc2Cl)C1	-28	116	84	99
NC(=O)COc1ccc(Br)cc1	-6	102	101	99
CCC(=O)Nc1ccc2nc(SCc3ccc(C)cc3)sc2c1	-8	100	91	98
CCOc1ccc(N(CC)C(=S)Nc2ccc3nc(N4CCN(CC)CC4)cc(C)c3c2)cc1	.	154	95	101
COc1ccc(N2CCN(CC(NS(=O)(=O)c3ccccc3)c3ccccc3)CC2)cc1 (stereo not given)	-33	92	88	.
Cc1nc(-n2[nH]c(C)c(Cc3ccccc3)c2=O)sc1C(=O)N1CCc2ccccc2C1	-18	.	.	105
COc1ccc(S(=O)(=O)c2c(N)n(CC3CCCO3)c3nc4ccccc4nc23)cc1 (stereo not given)	-26	85	78	99
CC1(C)CC(NCc2cc(Cl)c3c(c2)OCCCO3)CC(C)(C)N1	-22	81	90	.
CCCC1N=C2c3ccccc3N=C(SC(C)C(=O)Nc3ccc4c(c3)OCCO4)N2C1=O (stereo not given)	-13	.	.	106
Cc1cccc(NC(=O)n2ncc3c(C)cccc32)c1C	-20	.	.	103
COc1ccc(/C=C2/C(=O)C(C(C)C)=CCC2C)cc1 (stereo not given)	.	101	91	100
O=C(CSCc1ccccc1)N1CCN(S(=O)(=O)c2cccs2)CC1	11	93	104	.
C=CCn1c(Sc2ncnc3sccc23)nc2ccccc2c1=O	15	72	84	.
CC(OC(=O)Cn1ccc(=O)[nH]c1=O)C(=O)c1ccc(C(C)(C)C)cc1 (stereo not given)	-20	78	84	.
COc1ccc(OC)c(NC(=O)N2CC(C)Oc3ccc(C)cc32)c1 (stereo not given)	4	72	72	100
CCOC(=O)C1=C(C)NC(=O)NC1c1cn(-c2ccccc2)nc1-c1ccc(Br)cc1 (stereo not given)	-13	.	.	112&106
NC1=NC(=O)CC(C(=O)NCc2ccccc2)S1 (stereo not given)	-34	107	82	.
NC(=O)c1c(-c2ccc(Cl)cc2)csc1NC(=O)CCCc1ccccc1	7	80	91	.
O=C(Nc1ccc(S(=O)(=O)N2CCCCCC2)cc1)c1cc(=O)c2ccccc2o1	-26	99	86	103
c1ccc2[nH]c(C3CC3)nc2c1	-7	91	81	102
CCN1CCN(CCCNC(=O)c2cnn(-c3ccc(C)cc3)c2C2CCN(C(=O)OC(C)(C)C)CC2)CC1	.	113	87	105

Look-ups from the list:
Entry for O=C(CSCc1ccccc1)N1CCN(S(=O)(=O)c2cccs2)CC1 under Sa growth inh second temp: 104
Entry for O=C(Nc1ccc(S(=O)(=O)N2CCCCCC2)cc1)c1cc(=O)c2ccccc2o1 under Sa growth inh: 99
Entry for COc1ccc(OC)c(NC(=O)N2CC(C)Oc3ccc(C)cc32)c1 (stereo not given) under GIV Gai3 FP: 100
Entry for CCOC(=O)C1=C(C)NC(=O)NC1c1cn(-c2ccccc2)nc1-c1ccc(Br)cc1 (stereo not given) under GIV Gai3 FP: 112&106
Entry for CCN1CCN(CCCNC(=O)c2cnn(-c3ccc(C)cc3)c2C2CCN(C(=O)OC(C)(C)C)CC2)CC1 under Sa growth inh: 113
Entry for NC1=NC(=O)CC(C(=O)NCc2ccccc2)S1 (stereo not given) under Sa growth inh second temp: 82
